# Screening results from PubChem.
# FGF22 binding: binders of recombinant human FGF22 by thermal shift; Q9HCT0; hit rate 1.5% among 340,000; AID 651658; calls only at 9.99 µM; SYPRO orange fluorescence; percent of sucrose octasulfate shift, DMSO zero;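 active means melting point raised past a set limit in the mean and every replicate; three in four hits are not shown here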
# Target sequence (Q9HCT0 whole entry, looked up): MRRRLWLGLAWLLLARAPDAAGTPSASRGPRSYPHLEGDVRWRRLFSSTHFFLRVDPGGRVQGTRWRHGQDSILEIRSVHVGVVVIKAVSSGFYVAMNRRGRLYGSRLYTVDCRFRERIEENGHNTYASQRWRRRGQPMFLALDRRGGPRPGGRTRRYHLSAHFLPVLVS
# MLL AF4-AF9 inh: blocks AF4 peptide binding to human AF9 | AlphaScreen, biotin-AF4 peptide binding to FLAG-AF9 | inhibition, % at 10 µM | hit rate 0.47% among 350,000 | AID 651704;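 active means every replicate reaching a set inhibition limit, whatever the replicate mean, cut at about 25% in these data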;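 further: 0% = plate neutral control median and 100% = total signal loss; the record names both 10 and 1 µM as test concentration; the first replicate is given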
# Target sequence (P42568 whole entry, looked up): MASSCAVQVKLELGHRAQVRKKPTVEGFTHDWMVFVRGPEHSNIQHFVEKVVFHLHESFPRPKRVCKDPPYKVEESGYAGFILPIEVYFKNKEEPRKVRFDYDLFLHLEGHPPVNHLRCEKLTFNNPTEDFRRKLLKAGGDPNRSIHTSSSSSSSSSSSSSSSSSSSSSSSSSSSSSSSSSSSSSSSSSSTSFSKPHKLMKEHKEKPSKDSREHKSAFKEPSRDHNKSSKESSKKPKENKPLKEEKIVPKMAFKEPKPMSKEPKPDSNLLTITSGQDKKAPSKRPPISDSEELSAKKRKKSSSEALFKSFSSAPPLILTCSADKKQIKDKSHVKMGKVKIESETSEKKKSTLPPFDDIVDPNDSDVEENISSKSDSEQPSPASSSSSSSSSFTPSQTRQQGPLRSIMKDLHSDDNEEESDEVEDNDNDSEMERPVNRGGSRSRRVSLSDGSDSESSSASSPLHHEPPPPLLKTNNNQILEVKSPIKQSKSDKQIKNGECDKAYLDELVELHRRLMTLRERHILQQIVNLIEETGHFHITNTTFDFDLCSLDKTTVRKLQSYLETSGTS
# * hit, by the source's call; i = inactive; + = active, no number; & = joins results of further samples. This is a subset, so the mix of outcomes need not match the whole.
FGF22 binding,MLL AF4-AF9 inh,SMILES
i,2.7,C[C@@H]1CN([C@@H](C)CO)S(=O)(=O)c2ccc(C#CC3(O)CCCC3)cc2O[C@H]1CN(C)C(=O)Cc1ccncc1
i,0.1,CCCNC(=O)C[C@H]1CC[C@H]2[C@H](COc3ccc(NC(=O)C4CCOCC4)cc3C(=O)N2C)O1
i,-1.8,CN(C)Cc1cn(CC[C@@H]2CC[C@H](NC(=O)Nc3ccccc3F)[C@H](CO)O2)nn1
i,1.7,Cc1ccc(S(=O)(=O)N(C)C[C@H]2Oc3c(NC(=O)NC4CCCCC4)cccc3C(=O)N([C@H](C)CO)C[C@H]2C)cc1
i,15,COc1ccc(NC(=O)Nc2ccc3c(c2)CC(=O)N([C@@H](C)CO)C[C@@H](C)[C@H](CN(C)CC2CC2)O3)cc1
i,-0.2,COc1ccc(CN(C)C[C@H]2OCCCC[C@H](C)Oc3ccc(NC(=O)Nc4cccc5ccccc45)cc3C(=O)N([C@H](C)CO)C[C@H]2C)cc1
i,-2.2,O=C(C[C@H]1CC[C@H]2[C@@H](COC[C@@H](O)CN2C(=O)c2cccnc2)O1)NCc1ccccc1
i,0.8,O=C(NCC[C@H]1CC[C@@H](NS(=O)(=O)c2cccc(F)c2)[C@@H](CO)O1)C1CC1
i,-1.7,CCC(=O)N1C[C@@H](C)[C@H](OC)CN(C)C(=O)c2ccc(NC(=O)COC)cc2OC[C@H]1C
i,1.0&-0.3,C[C@H](CO)N1C[C@H](C)[C@@H](CN(C)Cc2ccncc2)Oc2c(NS(C)(=O)=O)cccc2C1=O
i,-2.9,CCc1csc(N2[C@H](CO)[C@@H](c3ccc(-c4cccc(F)c4)cc3)[C@@H]2C#N)n1
i,-0.1,COc1cccc(CNC(=O)C[C@H]2CC[C@H](NC(=O)C3CC3)[C@@H](CO)O2)c1
i,11,Cc1ccc(S(=O)(=O)N[C@H]2CC[C@H](CCNC(=O)C3CCCCC3)O[C@H]2CO)cc1
i,-5.9,CNC[C@@H]1OCCCC[C@@H](C)Oc2ccc(NC(=O)Cc3ccccc3)cc2C(=O)N([C@@H](C)CO)C[C@H]1C
i,4.7,Cc1cc(C(=O)Nc2ccc3c(c2)C(=O)N(C)[C@H]2CC[C@@H](CC(=O)NCc4ccc(-c5ccccc5)cc4)O[C@@H]2CO3)no1
i,3.5,COc1cccc(NC(=O)N2CC(=O)N3[C@H](CO)[C@@H](c4ccc(C#CCC5CCCC5)cc4)[C@H]3C2)c1
i,-19,CC(C)(O)C#Cc1cccc(-c2nc(C(=O)N3CCN(Cc4ccccc4)CC3)cc3c2[C@@H](CCO)N(S(=O)C(C)(C)C)C3)c1 (stereo not given in full)
i,3.2,Cc1noc(C)c1NC(=O)Nc1ccc2c(c1)C(=O)N([C@@H](C)CO)C[C@@H](C)[C@H](CN(C)S(=O)(=O)c1ccc(Cl)cc1)O2
i,8.0,COc1ccc(S(=O)(=O)N(C)C[C@@H]2Oc3ncc(-c4cc5ccccc5o4)cc3C(=O)N([C@H](C)CO)C[C@@H]2C)cc1
i,-1.7,C[C@@H]1CN([C@@H](C)CO)C(=O)c2cc(NC(=O)C3CC3)ccc2O[C@@H]1CN(C)Cc1ccncc1
i,-4.2,COc1ccc(C#Cc2ccc3c(c2)[C@@H]2[C@@H](CCN2C(=O)C2CC2)[C@@H](CO)N3)cc1
i,3.0,CO[C@H](C(=O)N(C)C[C@H]1OCc2ccccc2-c2c(n(C)c3ccccc23)C(=O)N([C@H](C)CO)C[C@@H]1C)c1ccccc1
i,1.7,COc1ccc(NC(=O)Nc2cccc3c2O[C@@H](CN(C)S(=O)(=O)c2ccc(C)cc2)[C@@H](C)CN([C@@H](C)CO)C3=O)cc1
i,-0.6,COc1ccccc1CNC(=O)C[C@@H]1CC[C@H](NC(C)=O)[C@H](CO)O1
i,-1.8,COc1ccc(CN(C)C[C@H]2Oc3ccc(NC(=O)c4ccncc4)cc3CC(=O)N([C@@H](C)CO)C[C@@H]2C)cc1
i,1.5,COc1ccc2c3c(n(C)c2c1)[C@@H](CO)N(C(=O)Nc1ccc(F)cc1)CC31CCN(C(=O)Nc2c(C)noc2C)CC1
i,-2.0,C[C@H](CO)N1C[C@H](C)[C@H](CN(C)C)Oc2c(NS(C)(=O)=O)cccc2C1=O
i,9.7,C[C@@H]1CCCCO[C@H](CN(C)CC2CC2)[C@H](C)CN([C@H](C)CO)C(=O)c2cc(NC(=O)c3ccccc3)ccc2O1
i,2.7,C[C@H](CO)N1C[C@H](C)[C@@H](CN(C)S(=O)(=O)c2cccc(F)c2)Oc2ncc(C#CC3CCCCC3)cc2C1=O
i,-8.5,CCNC(=O)Nc1ccc2c(c1)C(=O)N(C)[C@H]1CC[C@H](CC(=O)N[C@@H](C)c3ccccc3)O[C@H]1CO2
i,-1.5,COCC(=O)N(C)C[C@H]1Oc2cc(C#CC(C)(C)O)ccc2S(=O)(=O)N([C@@H](C)CO)C[C@@H]1C
i,-0.5,C[C@H]1CN([C@@H](C)CO)C(=O)c2cc(C#CCN(C)C)cnc2O[C@@H]1CN(C)C
i,0.8,C[C@@H]1CN([C@@H](C)CO)C(=O)Cc2cc(NC(=O)CCC(F)(F)F)ccc2O[C@@H]1CN(C)S(=O)(=O)c1ccc(F)cc1
i,-1.4,CCC(=O)N(C)C[C@H]1Oc2cc(C#C[C@H](C)O)ccc2S(=O)(=O)N([C@@H](C)CO)C[C@H]1C
i,-3.5,Cc1ccc(-c2cnc3c(c2)C(=O)N([C@@H](C)CO)C[C@@H](C)[C@@H](CN(C)C(=O)c2ccc(F)cc2)O3)cc1
i,-1.3,CCC(=O)N1[C@H](CN(C)C(C)=O)[C@@H](c2ccc(-c3cccnc3)cc2)[C@@H]1CO
i,-6.7,Cc1ccc(-c2cnc3c(c2)C(=O)N([C@H](C)CO)C[C@@H](C)[C@@H](CN(C)C(=O)c2ccc(F)cc2)O3)cc1
i,1.9,COCC#Cc1ccc([C@@H]2[C@H](CO)N3CCCCN(Cc4ccncc4)C[C@@H]23)cc1
i,0.0,CN(C)C(=O)[C@H]1[C@H](CO)[C@H]2Cn3c(ccc(C4=CCCC4)c3=O)[C@H]2N1C(=O)Cc1cccnc1
+,0.3,CSc1ccc(C(=O)NCC2CCN(C(=O)C(=O)c3cc4ccccc4o3)CC2)cc1
i,2.7,C[C@@H]1CN([C@H](C)CO)C(=O)c2cc(NC(=O)Cc3cn(C)c4ccccc34)ccc2O[C@@H]1CN(C)C(=O)NC1CCCCC1
i,-1.4,COc1ccc(NC(=O)N(C)C[C@H]2Oc3ccc(NC(=O)C4CCCCC4)cc3CC(=O)N([C@H](C)CO)C[C@@H]2C)cc1
i,5.6,C[C@H](CO)N1C[C@H](C)[C@H](CN(C)Cc2cncnc2)Oc2cc(C#CC3CCCC3)ccc2S1(=O)=O
i,1.8,COc1ccc(NC(=O)N(C)C[C@@H]2OCCCC[C@@H](C)Oc3ccc(NS(=O)(=O)c4ccc(Cl)cc4)cc3C(=O)N([C@@H](C)CO)C[C@H]2C)cc1
i,-1.8,CCCNC(=O)N1[C@@H](CO)[C@H](c2ccccc2)[C@@H]1CNC(C)=O
i,-0.3,COc1ccc(NC(=O)Nc2ccc3c(c2)C(=O)N([C@H](C)CO)C[C@@H](C)[C@@H](CN(C)C)O3)cc1
i,-2.9,CC(C)C(=O)Nc1ccc2c(c1)C(=O)N(C)[C@@H]1CC[C@H](CC(=O)NCC3CC3)O[C@@H]1CO2
i,0.9,C[C@@H]1CN([C@H](C)CO)C(=O)c2cc(/C=C/c3ccccc3)cnc2O[C@@H]1CN(C)C(=O)Cc1ccccn1
i,-3.1,C[C@H](CO)N1C[C@H](C)[C@H](CN(C)CC2CC2)Oc2c(NS(=O)(=O)c3cn(C)cn3)cccc2C1=O
i,-19,C[C@H]1CN([C@@H](C)CO)C(=O)c2cc(-c3ccccc3)cnc2O[C@H]1CN(C)C(=O)Nc1ccccc1F
i,1.3,COc1cccc(NC(=O)N[C@H]2C=C[C@@H](CC(=O)N3CCN(C)CC3)O[C@@H]2CO)c1
i,-0.8,O=C(C[C@@H]1C[C@H]2c3cc(NS(=O)(=O)c4ccc(F)cc4)ccc3O[C@H]2[C@@H](CO)O1)NCc1ccccn1
i,-2.4,C[C@H]1CN([C@@H](C)CO)C(=O)c2cccc(NS(C)(=O)=O)c2O[C@H]1CN(C)C(=O)NC1CCCCC1
i,-0.5,CCOc1cccc(C=NNC(=O)C(=O)Nc2cccc(C(F)(F)F)c2)c1O
i,-1.5,C[C@H]1CN([C@@H](C)CO)C(=O)Cc2cc(NC(=O)C3CCCCC3)ccc2O[C@@H]1CN(C)C(=O)Nc1ccc2c(c1)OCO2
i,4.5,C[C@@H]1CN([C@H](C)CO)C(=O)c2ccccc2-c2ccccc2CO[C@H]1CN(C)S(=O)(=O)c1cccc(C#N)c1
i,-10,COc1ccccc1-c1cnc2c(c1)C(=O)N([C@H](C)CO)C[C@@H](C)[C@H](CN(C)C(=O)CN(C)C)O2
i,-1.1,C[C@@H]1CN([C@H](C)CO)C(=O)c2ccccc2-c2ccccc2CO[C@H]1CN(C)C(=O)[C@H](Cc1ccccc1)N(C)C
i,1.8,O=C(C[C@H]1C[C@H]2c3cc(NC(=O)c4ccc5c(c4)OCO5)ccc3O[C@H]2[C@@H](CO)O1)NCc1ccccn1
i,1.7,C/C=C/c1ccc([C@@H]2[C@@H](CO)N(CC3CCCC3)C23CN(S(=O)(=O)CC)C3)cc1

# As entered above:
# Cc1ccc(-c2cnc3c(c2)C(=O)N([C@@H](C)CO)C[C@@H](C)[C@@H](CN(C)C(=O)c2ccc(F)cc2)O3)cc1 | MLL AF4-AF9 inh: -3.5
# CCC(=O)N1C[C@@H](C)[C@H](OC)CN(C)C(=O)c2ccc(NC(=O)COC)cc2OC[C@H]1C | MLL AF4-AF9 inh: -1.7
# COc1ccc(NC(=O)Nc2ccc3c(c2)CC(=O)N([C@@H](C)CO)C[C@@H](C)[C@H](CN(C)CC2CC2)O3)cc1 | MLL AF4-AF9 inh: 15
# C[C@@H]1CN([C@H](C)CO)C(=O)c2ccccc2-c2ccccc2CO[C@H]1CN(C)S(=O)(=O)c1cccc(C#N)c1 | MLL AF4-AF9 inh: 4.5
# C[C@H](CO)N1C[C@H](C)[C@H](CN(C)CC2CC2)Oc2c(NS(=O)(=O)c3cn(C)cn3)cccc2C1=O | MLL AF4-AF9 inh: -3.1
# COc1ccc(NC(=O)Nc2cccc3c2O[C@@H](CN(C)S(=O)(=O)c2ccc(C)cc2)[C@@H](C)CN([C@@H](C)CO)C3=O)cc1 | MLL AF4-AF9 inh: 1.7
# CN(C)C(=O)[C@H]1[C@H](CO)[C@H]2Cn3c(ccc(C4=CCCC4)c3=O)[C@H]2N1C(=O)Cc1cccnc1 | MLL AF4-AF9 inh: 0.0

# (list continues)
FGF22 binding,MLL AF4-AF9 inh,SMILES
i,-5.5,O=C(C[C@H]1CC[C@@H](NC(=O)Cc2cccnc2)[C@H](CO)O1)Nc1ccc(-c2ccccc2)cc1
i,0.6,COc1ccc(S(=O)(=O)N(C)C[C@H]2OCCCC[C@@H](C)Oc3ccc(NC(=O)Nc4c(C)noc4C)cc3C(=O)N([C@H](C)CO)C[C@@H]2C)cc1
i,1.4,C[C@H]1CN([C@@H](C)CO)C(=O)c2cc(NC(=O)Nc3cccc4ccccc34)ccc2O[C@H]1CN(C)C(=O)Nc1ccc(F)cc1
i,-1.1,C[C@@H]1CN([C@@H](C)CO)C(=O)c2cc(NC(=O)Nc3cccc4ccccc34)ccc2O[C@H]1CN(C)C(=O)Nc1ccc(F)cc1
i,-1.6,C[C@H](O)C#Cc1cnc2c(c1)C(=O)N([C@H](C)CO)C[C@H](C)[C@H](CN(C)C(=O)Nc1ccc(F)cc1)O2
i,12,COc1ccc(NC(=O)Nc2ccc3c(c2)C(=O)N([C@@H](C)CO)C[C@H](C)[C@@H](CN(C)Cc2ccccc2)OCCCC[C@@H](C)O3)cc1
i,2.3,COCC(=O)N1CC[C@@H]2[C@H]1c1cc(C#Cc3ccc(F)cc3)ccc1N[C@@H]2CO
i,9.4,C[C@@H]1CN([C@@H](C)CO)S(=O)(=O)c2ccc(/C=C/c3ccccc3)cc2O[C@H]1CN(C)Cc1ccc(C(=O)O)cc1
i,0.6,CCC(=O)N1CCC2(CC1)CN(Cc1cccc(F)c1)[C@@H](CO)c1c2c2ccc(OC)cc2n1C
i,-2.5,N#C[C@H]1[C@H](c2ccc(-c3ccccc3F)cc2)[C@@H](CO)N1C(=O)C1CCOCC1
i,-0.5,COc1ccccc1S(=O)(=O)N[C@@H]1CC[C@H](CCNC(=O)C2CCCCC2)O[C@H]1CO
i,-1.2,CN1C(=O)c2cc(NC(=O)C3CCC3)ccc2OC[C@@H]2O[C@H](CC(=O)NCc3ccccc3F)CC[C@@H]21
i,-0.7,O=C(C[C@H]1CC[C@@H]2[C@H](COC[C@@H](O)CN2C(=O)Nc2cccc(F)c2)O1)NCc1ccccc1Cl
i,-2.0,CO[C@H]1CN(C)C(=O)c2ccc(NS(C)(=O)=O)cc2OC[C@H](C)N(CC2CCOCC2)C[C@@H]1C
i,-24,Cc1noc(C)c1NC(=O)N(C)C[C@@H]1Oc2ncc(C#CC3CCCCC3)cc2C(=O)N([C@H](C)CO)C[C@@H]1C
i,-0.8,CC(C)C#Cc1cnc2c(c1)C(=O)N([C@@H](C)CO)C[C@H](C)[C@@H](CN(C)C(=O)CCN1CCCCC1)O2
i,-3.2,COc1ccc(-c2cnc3c(c2)C(=O)N([C@H](C)CO)C[C@@H](C)[C@@H](CN(C)C(=O)Cc2cccnc2)O3)cc1

# Ordered by the number under MLL AF4-AF9 inh (largest number first): 3 from the list above
FGF22 binding,MLL AF4-AF9 inh,SMILES
i,1.4,C[C@H]1CN([C@@H](C)CO)C(=O)c2cc(NC(=O)Nc3cccc4ccccc34)ccc2O[C@H]1CN(C)C(=O)Nc1ccc(F)cc1
i,0.6,COc1ccc(S(=O)(=O)N(C)C[C@H]2OCCCC[C@@H](C)Oc3ccc(NC(=O)Nc4c(C)noc4C)cc3C(=O)N([C@H](C)CO)C[C@@H]2C)cc1
i,-5.5,O=C(C[C@H]1CC[C@@H](NC(=O)Cc2cccnc2)[C@H](CO)O1)Nc1ccc(-c2ccccc2)cc1
